# GIV-Gai inh: GIV-Galpha-i interaction inhibition; percent of control (FP), % (no concentration beside the values); 0.42% of 210,000 active; Galpha-i3/FITC-GIV peptide fluorescence polarization, 90 min; stronger effect = lower value; scaled: aluminum fluoride 0%, vehicle 100%;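 active = replicate mean at 85% of control or lower, very high polarization wells dropped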;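 note: wells of about 15 µL received 100 nL stock; the first replicate is given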
# Target sequence (P08753 whole entry, looked up): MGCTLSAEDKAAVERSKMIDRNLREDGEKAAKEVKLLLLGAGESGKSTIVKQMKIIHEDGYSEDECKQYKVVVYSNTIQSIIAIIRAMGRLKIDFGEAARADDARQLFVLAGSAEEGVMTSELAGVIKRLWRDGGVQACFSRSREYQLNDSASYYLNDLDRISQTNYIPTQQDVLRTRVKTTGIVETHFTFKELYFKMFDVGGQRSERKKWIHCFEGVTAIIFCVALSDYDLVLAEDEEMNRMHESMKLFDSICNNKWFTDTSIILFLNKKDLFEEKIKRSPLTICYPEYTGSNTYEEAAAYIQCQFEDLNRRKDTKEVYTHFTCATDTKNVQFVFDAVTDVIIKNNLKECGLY
# Starred values were filed as active, the others as inactive. These rows are one share of the data; the hit share may differ from the screen's.
# Preview, three compounds:
SMILES,GIV-Gai inh
COc1ccc(N2C(=O)NC(=O)/C(=C\c3cc(Br)c(OC)c(OC)c3)C2=O)cc1,110
O=C(c1cccc(Cl)c1)N1CCN(Cc2noc(-c3ccccc3)n2)CC1,102
Cc1cc(C)cc(NC(=O)Cn2c(=O)c(CCC(=O)NC3CCCC3)nc3ccccc32)c1,100

# The list itself, from the first entry:
SMILES,GIV-Gai inh
COc1ccc(N2C(=O)NC(=O)/C(=C\c3cc(Br)c(OC)c(OC)c3)C2=O)cc1,110
O=C(c1cccc(Cl)c1)N1CCN(Cc2noc(-c3ccccc3)n2)CC1,102
Cc1cc(C)cc(NC(=O)Cn2c(=O)c(CCC(=O)NC3CCCC3)nc3ccccc32)c1,100
Cc1cc(N2CCOCC2)nc(N2CCN(S(=O)(=O)c3ccc(Br)cc3)CC2)n1,99
CCOc1ccc(-n2c(=S)sc3c(=O)n(-c4ccccc4C)c(=S)[nH]c32)cc1,117
CCOc1ccccc1-c1noc(-c2nn(-c3ccc(C)cc3)ccc2=O)n1,97
COc1nccnc1NS(=O)(=O)c1ccc(NC(=S)NC(=O)c2cc3ccccc3oc2=O)cc1,101
Cc1cc(C)c(S(=O)(=O)N2CCc3c(c(COCc4ccccc4)nn3C)C2)cc1C,104
COc1ccccc1N1C(=O)c2ccccc2NC12C(=O)N(Cc1c(Cl)cccc1Cl)c1ccccc12 (configuration not stated),100
COc1ccccc1CNC1=NCCNC12CCN(S(=O)(=O)c1cccs1)CC2,103
CC1CCCN(CC2CCN(S(=O)(=O)c3ccc(F)cc3Cl)CC2)C1 (configuration not stated),107
CC(C)N1CCN(C(=O)c2cc3c(s2)CN(C2CC2)C3)CC1,105
CCOC(=O)c1ccccc1NC(=O)CC1SC(=NC)N(C)C1=O (configuration not stated),106
O=C(C1CCN(c2cc(N3CCOCC3)ncn2)CC1)N1CCC2(CC1)OCCO2,100
CCOc1ccc(NC(=O)CSc2nc3cc(C(=O)NCC4CCCO4)ccc3c(=O)n2CC2CCCO2)cc1 (configuration not stated),108
Cc1cccc(N2CCN(C(=O)c3cc(S(=O)(=O)N4CCCC4)ccc3Cl)CC2)c1C,103
COc1ccc(Nc2nc(NCc3cccnc3)nc(NCc3cccnc3)n2)c(OC)c1,103
CCOC(=O)C1=C(C)NC(C)=C(C(=O)OCC)C1c1cn(-c2ccccc2)nc1-c1cccc([N+](=O)[O-])c1,105
COc1ccc(/C=c2/sc3nc4cc(Br)cnc4n3c2=O)c(OC)c1,103
COc1cccc(NC(=O)Nc2nc(-c3ccc(F)cc3)cn2/N=C/c2ccc(Cl)cc2Cl)c1,108
CCSCCOC(=O)C1=C(C)NC(=O)NC1c1cc(Br)c(O)c(OC)c1 (configuration not stated),107
N#Cc1c(-c2ccccc2)cc(-c2ccccc2)nc1SCC(O)CN1CCOCC1 (configuration not stated),108
O=C1C2C(c3ccc(Cl)cc3)OC3(C(=O)c4ccccc4C3=O)C2C(=O)N1c1ccc(F)c([N+](=O)[O-])c1 (configuration not stated),98
CCOC(=O)C1=C(N)N(c2ccc(Br)cn2)C2=C(C(=O)CCC2)C1c1ccc2c(c1)OCO2 (configuration not stated),117
COC(=O)C1=CN(CCOC23CC4CC(CC(C4)C2)C3)C=C(C(=O)OC)C1c1ccc(OC)cc1,113
CCOC(=O)c1c(S(=O)(=O)N2CCCC(C(=O)Nc3cc(C)ccn3)C2)c(C)n(CC)c1C (configuration not stated),102
O=S(=O)(c1ccc(Cl)cc1)c1nc(/C=C/c2ccccc2)oc1NCc1ccco1,106
Cc1nc2cc(-c3noc(Cc4cccc5ccccc45)n3)ccc2o1,100
CCc1cc2c3c(c(=O)oc2cc1OC(C)C(=O)OC)CCCC3 (configuration not stated),104
Cc1c(CN2CCSCC2)nnn1-c1ccc(F)cc1,102
CCCn1c2c(c(O)c(C(=O)Nc3nc(C45CC6CC(CC(C6)C4)C5)cs3)c1=O)CCCC2,107
CCOC(=O)CN1C(=O)C(O)(CC(=O)c2ccc(OC)cc2OC)c2ccccc21 (configuration not stated),111
COc1cc(OC)cc(C(=O)Nc2ccc(SCc3nnc(-c4ccccc4)o3)cc2)c1,100
CC1(C)CC(=O)C2=C(C1)N(c1ccccc1C(F)(F)F)C(N)=C(C#N)C2c1cccs1 (configuration not stated),112
CCOC(=O)C1=C(C)NC2=C(C(=O)c3ccccc32)C1c1ccccc1OCc1ccc(F)cc1 (configuration not stated),111
Cc1onc(-c2ccc(Br)cc2)c1C(=O)NC(C)CCc1ccccc1 (configuration not stated),98
CCC(C)NS(=O)(=O)c1cc(C(=O)N2CCCC2)cs1 (configuration not stated),98
COc1ccc(OC)c(N2C(=N)/C(=C(/O)c3ccccc3)C(c3cc(OC)c(OC)c(OC)c3)C3=C2CC(C)(C)CC3=O)c1 (configuration not stated),126
CC(C(=O)NCC1CCCO1)C1CCN(C(=O)c2cc3cc(Cl)ccc3[nH]2)CC1 (configuration not stated),104
Cc1cc(C)c(C2=NON3N(C(=O)C(C)C)c4ccccc4N23)c(C)c1,109
Cc1ccc(NS(=O)(=O)c2cc(-c3nc(C)c(C)s3)sc2C)c(Cl)c1,100
CCOC(=O)C1(C)/C(=N\Nc2ccc(OC)cc2)C(=O)C(=O)N1c1ccccc1 (configuration not stated),104
Cc1ccc(-c2cc(C(F)(F)F)n3nc(C(=O)NCCCN4CCOCC4)cc3n2)cc1,114
O=C(COC(=O)c1cc2c3c(c1)C1C=CCC1CN3CC1CC=CC21)c1ccc(-c2ccccc2)cc1 (configuration not stated),115
CC1C/C(=C\c2ccc(Br)cc2)C(=O)/C(=C/c2ccc(Br)cc2)C1 (configuration not stated),105
COc1ccc(C(=O)N2CCN(S(=O)(=O)c3ccc4[nH]c(=O)sc4c3)CC2)c(OC)c1,100
CN(C)C1N(C(=O)c2ccc(Br)cc2)N=C2c3ccccc3S(=O)(=O)N21 (configuration not stated),117
O=S(=O)(c1ccccc1Cl)N1CCN(c2ncnc3c2nnn3-c2ccccc2)CC1,95
CCOC(=O)c1[nH]c(C)c(CN(Cc2ccc(C)cc2)C(=O)Nc2ccc3c(c2)OCCO3)c1C,98
Cc1ccc(C)c(N2CCN(S(=O)(=O)c3cc(-c4cc(C(F)(F)F)on4)cs3)CC2)c1,99
O=C(Cn1cnc2sc3c(c2c1=O)CCCC3)NCCCC(=O)N1CCN(c2cccc(Cl)c2)CC1,111
COc1cc(C2OCC3(COC(C)=O)C(C)C=C(C)C2C3C)ccc1OC(C)=O (configuration not stated),107
CCCn1cnc2c(-c3ccccc3)csc2c1=O,107
Cc1nc(C)c(-c2nc(-c3ccc4c(c3)nnn4C3CCCC3)no2)s1,103
O=C(C1CC1)N1CCC(NS(=O)(=O)c2ccccc2)C1 (configuration not stated),97
CCOC(=O)c1ccc(Nc2cc(C)nc(NCc3ccccc3)n2)cc1,104
O=S(=O)(c1cc(-c2nnc(C3CC3)o2)co1)N1CCN(c2cccc(Cl)c2)CC1,95
O=c1[nH]c2ccc(S(=O)(=O)N3CCc4ccccc4C3)cc2[nH]1,101
O=C(Nc1ccc2c(c1)OCO2)c1cccc(-c2nc(-c3cccc(F)c3)no2)c1,101
CN(C)c1oc(-c2ccccc2Cl)nc1P(=O)(c1ccccc1)c1ccccc1,103

# (more compounds)
SMILES,GIV-Gai inh
O=C(CSc1nc2ccc(NC(=O)c3ccccc3Br)cc2s1)NC1CC1,97
CN(Cc1ccccc1)S(=O)(=O)c1ccc(N2CCOCC2)c(C(=O)NCCCN2CCCC2=O)c1,113
COC(CNC(=O)c1cc(S(=O)(=O)N2CC(C)CC(C)C2)ccc1Sc1ccc(Br)cc1)OC (configuration not stated),107
N#CC1=C(N)OC2=C(C(=O)CC(c3ccccc3)C2)C1c1ccccc1Br (configuration not stated),108
Cc1ccc(C(=O)CSc2n[nH]c(-c3ccncc3)n2)c(C)c1,101
Cn1c(=O)c([N+](=O)[O-])c(N2CCCC2)c2ccccc21,112
O=C(Nc1cnc(N2CCN(c3ccccc3)CC2)c(C(=O)O)c1)c1ccc(Br)cc1,111
CCCCCOC(=O)CSc1nnc(-c2ccccc2)c(=O)[nH]1,106
O=C(c1nnc(-c2csc(S(=O)(=O)NCc3ccccn3)c2)o1)N1CCCC1,106
COCCNC(=O)CN1c2ccccc2NC2=C(C(=O)CC(C)(C)C2)C1c1ccc(C)cc1 (configuration not stated),103
O=S(=O)(NCCc1n[nH]c(Cc2ccccc2)n1)c1ccccc1F,108
Cc1cc(N(C)C)nc(N2CCN(S(=O)(=O)c3ccc(F)cc3)CC2)n1,97
CC1CCN(C(=O)Cn2nc(C(=O)N3CCCC3)c3ccccc32)CC1,105
COc1ccc(-c2nc(-c3c4ccccc4cc4ccccc34)[nH]c2-c2ccc(OC)cc2)cc1,109
COc1cc(/C=C2/NC(=S)NC2=O)ccc1OC(=O)C12CC3CC(CC(C3)C1)C2,102

# Another view of four compounds above.
mol	GIV-Gai inh
N#CC1=C(N)OC2=C(C(=O)CC(c3ccccc3)C2)C1c1ccccc1Br (configuration not stated)	108
Cc1ccc(C(=O)CSc2n[nH]c(-c3ccncc3)n2)c(C)c1	101
Cn1c(=O)c([N+](=O)[O-])c(N2CCCC2)c2ccccc21	112
O=C(Nc1cnc(N2CCN(c3ccccc3)CC2)c(C(=O)O)c1)c1ccc(Br)cc1	111

# Back to the main list, repeating the two entries before the break.
SMILES,GIV-Gai inh
COc1ccc(-c2nc(-c3c4ccccc4cc4ccccc34)[nH]c2-c2ccc(OC)cc2)cc1,109
COc1cc(/C=C2/NC(=S)NC2=O)ccc1OC(=O)C12CC3CC(CC(C3)C1)C2,102
Cc1ccc(C)c(NC(=O)Nc2ccc(-c3nnc(-c4ccccc4)o3)cc2)c1,107
CN(C)c1ccc(-c2noc(C(=O)NCCc3ccc(Cl)cc3)n2)cc1,99
O=c1n(Cc2ccc(F)cc2)nc2c(S(=O)(=O)N3CCc4ccccc4C3)cccn12,114
CC1(C)CC(=O)C2=C(C1)NC1=C(C(=O)CC(C)(C)C1)C2c1ccc(O)cc1,105
Cc1ccc(S(=O)(=O)N(CC(O)Cn2c3ccccc3c3ccccc32)c2ccc(Cl)cc2)cc1 (configuration not stated),120
COc1ccc(CCNC(=O)CSc2nc3ccccc3[nH]2)cc1OC,113
Cc1[nH]n(-c2ccccc2)c(=O)c1C(c1ccccc1C(F)(F)F)c1c(C)[nH]n(-c2ccccc2)c1=O,104
COc1cccc(C2=NN3C(C2)c2cc(Cl)ccc2OC3c2cccc(Cl)c2)c1 (configuration not stated),106
CCOc1ccc(-c2noc(CSc3nc4cc5c(cc4c(=O)n3CCCOC)OCO5)n2)cc1,105
Cc1cc(N(C)C)nc(Nc2ccc(NS(=O)(=O)c3cc(C)c(C)cc3C)cc2)n1,101
CCOC(=O)C1=C(C)NC2=C(C(=O)c3ccccc32)C1c1ccc2c(c1)OCO2 (configuration not stated),109
CC(C)c1cc(C2CCCN2S(=O)(=O)c2ccc(Cl)s2)no1 (configuration not stated),104
CCC(=O)N1CCc2c(c(C(=O)N3CCC(C(=O)NCc4ccc(OC)cc4)CC3)nn2C)C1,108
Cc1csc(-c2cc(S(=O)(=O)NCC(C)C)cn2CC(=O)N2CCCCC2)n1,101
CC(C)(C)c1ccc(C(=O)N/C(=C\c2ccc([N+](=O)[O-])cc2)C(=O)Nc2cc(Cl)cc(Cl)c2)cc1,121
CC1=C(C(=O)Nc2ccc(Cl)cc2)C(c2ccncc2)C(C#N)=C(SCC(=O)Nc2ccc(C)cc2C)N1 (configuration not stated),106
CC1(C)CC(=O)C2=C(C1)c1c(ccc3ccccc13)NC2c1cc(Br)ccc1OCc1ccc(Cl)cc1Cl (configuration not stated),124
CCCCC(=O)N1c2ccc(OCC)cc2C2=C(SC(C(=O)OC)=C(C(=O)OC)C23SC(C(=O)OC)=C(C(=O)OC)S3)C1(C)C,108
Cc1cccc(-c2cc3nc(CN(C)Cc4ccccc4)cc(=O)n3[nH]2)c1,99
COc1ccc(C(=O)Nn2c(SCc3ccc([N+](=O)[O-])cc3)nc3ccccc3c2=O)cc1,100
CCc1onc(C)c1C1CCCN1Cc1cn(C)nc1C (configuration not stated),108
O=C(Nc1ccccc1Br)c1nc2nc(-c3ccc(F)cc3)cc(C(F)(F)F)n2n1,105
N#CC(=C1CCCC1)c1nc(-c2ccccc2O)cs1,107
CCN(CC)c1cc(CNC(=O)NCCC(C)C)ccn1,105
COc1ccccc1-n1c(=O)n(Cc2nc(-c3cc(C)ccc3C)oc2C)c(=O)c2cccnc21,107
COCCNc1nc(SCc2ccc(F)cc2)nc2ccccc12,104
CN(C)C(=O)c1cccc2c1NC(c1ccc(Cl)cc1Cl)C1CC=CC21 (configuration not stated),110
CC(=O)N1C(=O)C2(C(C#N)=C(N)Oc3n[nH]c(-c4ccccn4)c32)c2ccccc21 (configuration not stated),108
CCOC(=O)c1sc2nc(SCc3cc(F)cc4c3OCOC4)n(CC3CCCO3)c(=O)c2c1C (configuration not stated),109
Cc1ccc(-c2noc(C3CCCN3C(=O)c3ccc(CS(=O)(=O)c4ccccc4)cc3)n2)cc1 (configuration not stated),103

# Looked up above:
# Under GIV-Gai inh, COc1ccc(/C=c2/sc3nc4cc(Br)cnc4n3c2=O)c(OC)c1 is entered as 103
# Under GIV-Gai inh, CC(C)c1cc(C2CCCN2S(=O)(=O)c2ccc(Cl)s2)no1 (configuration not stated) is entered as 104
# Under GIV-Gai inh, CCSCCOC(=O)C1=C(C)NC(=O)NC1c1cc(Br)c(O)c(OC)c1 (configuration not stated) is entered as 107
# Under GIV-Gai inh, COC(CNC(=O)c1cc(S(=O)(=O)N2CC(C)CC(C)C2)ccc1Sc1ccc(Br)cc1)OC (configuration not stated) is entered as 107
# Under GIV-Gai inh, CN(C)c1ccc(-c2noc(C(=O)NCCc3ccc(Cl)cc3)n2)cc1 is entered as 99

# (listing goes on)
SMILES,GIV-Gai inh
Nc1nc(Cn2c(=O)oc3ccccc32)nc(N2CCCCC2)n1,106
CC(=O)OC[C@H]1O[C@@H](Oc2ccc(C)cc2)[C@H](OC(C)=O)[C@@H](OC(C)=O)[C@@H]1OC(C)=O,112
CCOC(=O)c1c(CN(C)CCO)n(C)c2cc(Br)c(OC(C)=O)cc12,107
Nc1c(C(=O)Nc2ccc([N+](=O)[O-])cc2)sc2nc3c(c(-c4ccco4)c12)CCCCC3,106

# High-throughput results from PubChem.
